# PABP FP inh: PABP poly(A) RNA binding inhibitors, primary screen, biochemical, fluorescence polarization, uHTS. 290,000 compounds, 1% hits. Polyadenylate-binding protein 1 (Homo sapiens), P11940. inhibition, % at 35 µM;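 active = 50% or more with normal probe brightness, or confirmed in later tests; inconclusive = above 50% with abnormal brightness, or retests that disagree; inactive = below 50% or failed in later tests; about a fifth of its hits are not listed in these tables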;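 note: calls also rest on retests at 20 µM and on dose response follow-up; controls were probe without protein and protein plus probe with vehicle; some compounds called inactive have numbers as strong as hits; many hits fall short of the cut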
# Target sequence (P11940 whole entry, looked up): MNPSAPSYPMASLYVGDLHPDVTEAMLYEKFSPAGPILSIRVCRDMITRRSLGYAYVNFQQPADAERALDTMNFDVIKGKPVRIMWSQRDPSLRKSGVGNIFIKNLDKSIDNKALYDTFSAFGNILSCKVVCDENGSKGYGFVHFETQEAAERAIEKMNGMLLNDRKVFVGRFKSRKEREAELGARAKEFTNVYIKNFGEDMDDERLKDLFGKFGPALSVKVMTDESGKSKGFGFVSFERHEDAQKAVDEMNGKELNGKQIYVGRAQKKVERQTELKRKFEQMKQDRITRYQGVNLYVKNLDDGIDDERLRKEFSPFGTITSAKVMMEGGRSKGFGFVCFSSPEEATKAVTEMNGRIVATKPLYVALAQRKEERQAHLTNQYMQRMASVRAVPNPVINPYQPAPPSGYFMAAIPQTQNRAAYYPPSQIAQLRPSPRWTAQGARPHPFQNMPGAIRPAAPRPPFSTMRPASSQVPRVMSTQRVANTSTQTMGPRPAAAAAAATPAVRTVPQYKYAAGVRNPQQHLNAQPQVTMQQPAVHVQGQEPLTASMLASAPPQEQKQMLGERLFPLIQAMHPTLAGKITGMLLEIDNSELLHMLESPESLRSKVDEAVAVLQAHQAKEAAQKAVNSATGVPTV
# eIF4H inh: human eIF4H binding inhibitors, primary screen, translation initiation inhibitor project, biochemical, uHTS, fluorescence polarization; Eukaryotic translation initiation factor 4H (Homo sapiens), Q15056; eIF4H fluorescence polarization binding assay; inhibition, % at 35 µM; 290,000 compounds, 0.94% hits;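 active = 50% or more with normal probe brightness, or confirmed in later tests; inconclusive = above 50% with abnormal brightness, or retests that disagree; inactive = below 50% or failed in later tests; about a fifth of its hits are not listed in these tables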;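 note: calls also rest on retests at 20 µM and on dose response follow-up; 0% = protein and probe with vehicle and 100% = probe without protein; strong numbers were not always called active; many hits fall short of the cut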
# Rce1 inh: yeast Rce1p protease inhibitors, primary screen, biochemical, fluorescence, cell-free homogeneous; CAAX prenyl protease 2 (Saccharomyces cerevisiae (strain ATCC 204508 / S288c)), Q03530; yeast membranes, quenched prenylated peptide cleavage fluorescence; calls only; 290,000 compounds, 0.27% hits; AID 2563, 2010;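 active = fall in fluorescence gain of 50% or more versus controls, with final raw signal at or below 3038400; inconclusive = same 50% fall but final raw signal above 3038400; inactive = fall in fluorescence gain under 50%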;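 note: plate controls were neutral control wells for no effect and wells lacking membranes for full effect; tested at 10 µM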
# Target sequence (Q03530 whole entry, looked up): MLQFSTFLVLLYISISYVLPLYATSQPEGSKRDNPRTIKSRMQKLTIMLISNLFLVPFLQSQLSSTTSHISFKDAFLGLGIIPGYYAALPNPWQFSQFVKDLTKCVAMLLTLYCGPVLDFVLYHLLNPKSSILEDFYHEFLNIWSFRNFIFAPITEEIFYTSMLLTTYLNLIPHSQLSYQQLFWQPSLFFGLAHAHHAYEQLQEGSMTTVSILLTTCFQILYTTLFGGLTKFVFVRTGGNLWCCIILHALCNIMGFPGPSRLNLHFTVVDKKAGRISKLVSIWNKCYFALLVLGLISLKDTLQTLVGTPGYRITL
# CSC inhib: cancer stem cell viability inhibitors, primary screen, luminescence | inhibition, % at 7.5 µM | 300,000 compounds, 1.1% hits | AID 2717, 2010 | cancer stem cell-like cells viability;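 active = mean at 75% or more and at least half the replicates too; inconclusive = mean and replicates disagree; tested in HMLE shEcad cells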;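 note: 0% = median of negative and 100% = median of positive control wells; the first replicate is given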
# HIV Env fusion: inhibitors of HIV-1 Env-driven cell-cell fusion, primary screen, HeLa-JRFL effector, CEM21 target cells, luciferase | 360,000 compounds, 1.1% hits | AID 651610, 2012 | inhibition, % at 12.3 µM;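 active = mean replicate inhibition score of at least 50 and every replicate individually at or above 50; inconclusive = only one of the two criteria met; inactive = mean below 50 and not all replicates reaching 50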;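 note: 0% = plate neutral controls and 100% = maraviroc near 300 nM; one replicate is shown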
# Yeast UUG start: modulators of yeast start codon fidelity, primary screen, whole organism, S. cerevisiae, single point, plate reader; 350,000 compounds, 0.13% hits; activity score, % at 18.7 µM; S. cerevisiae UUG-firefly luciferase reporter, luminescence/redox ratio; AID 602363, 2012;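 active = replicate mean at a twofold rise or more, about +100% in these data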;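 note: firefly luciferase made from a UUG start codon reports start codon fidelity; reporter light over untreated wells divided by growth signal over untreated wells; some hits fall short of that in this replicate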
# MT1-MMP act inh: blockers of MT1-MMP proenzyme processing, primary screen, HT1080 RFP-PRO-GFP cells, GFP/RFP fluorescence | GFP/RFP ratio fluorescence, overnight; percent of plate control window, DMSO zero | GFP/RFP ratio change, % at 20 µM | Matrix metalloproteinase-14 (Homo sapiens), P50281 | 360,000 compounds, 0.061% hits;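 active = GFP/RFP ratio change of at least 30% with cell ATP level not reduced by more than half and red fluorescence within 50% of control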; note: strong numbers were not always called active
#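 system = RFP-PRO-GFP reporter HT1080 cells | dosing = 20 µM single dose, 1% DMSO | timing = overnight cell settling, then overnight compound exposure, 37 °C, 5% CO2 | read-out basis = GFP/RFP fluorescence ratio | controls = DMSO and RFP-L50D-GFP cell wells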
# eIF4H inh retest: recorded beside eIF4H inh, whose call it bears; inhibition, %; compound at 20 µM; confirmation average;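 mean of two retest wells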
# PABP FP inh retest: also measured in PABP FP inh; calls as there; inhibition, %; compound at 20 µM; confirmation repeats;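 mean of two retest wells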
# MT1-MMP act inh RFP: second read-out of MT1-MMP act inh, no call of its own (marks repeat the call); RFP signal change, %; measured here: RFP expression control read;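 0 = vehicle wells; hits needed this value within 50% of zero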
# Active calls of the source: *; i = inactive; ? = inconclusive; · = no result given. Not all compounds are listed; the hit share may differ from the screen's.
SMILES,PABP FP inh,eIF4H inh,Rce1 inh,CSC inhib,HIV Env fusion,Yeast UUG start,MT1-MMP act inh,MT1-MMP act inh RFP,others
Cc1ccc(/C=C/C(=O)Nc2ccc(Oc3ccccc3)cc2)o1,5,-6,i,88*,19,·,-9,-15,
O=C(N/N=C/c1cc(Br)ccc1O)C(=O)Nc1ccccc1OC(F)(F)C(F)F,-7,1,i,96*,-49,-20,-11,0,
Cc1nc(N2CCN(S(=O)(=O)c3ccccc3C#N)CC2)c2c(-c3ccccc3)csc2n1,·,·,·,20,7,141*,-11,-6,
O=C(CC1C(=O)NCCN1C(=O)c1ccc([N+](=O)[O-])cc1)Nc1ccc(F)cc1 (stereo not given),20,0,i,-9,-10,-23,2,6,
COc1ccccc1/C=C/C1C(C(=O)OCC(C)C)=C(C)N=C2SCCC(=O)N21 (stereo not given),-6,4,i,3,25,·,-1,-7,
CCOC(=O)C1=C(C)c2ccccc2N(S(=O)(=O)C(F)(F)F)C1C(=O)OCC (stereo not given),·,·,·,·,-3,1,2,3,
CCN1CCN(S(=O)(=O)c2ccc(F)c(C(=O)Nc3c(F)cc(F)cc3Br)c2)CC1,-4,-4,i,3,7,-9,3,3,
N#Cc1cccc(NC(=O)CN2CCCCCC2)c1,1,-4,i,-11,-2,-6,-3,2,
CCCN1CCN(C(=O)c2oc3c(Cl)cccc3c2C)CC1,10,-9,·,-10,-7,-12,2,-1,
CC(=O)Nc1ccc(S(=O)(=O)N2CCC(C(=O)NCCC(=O)Nc3ccccc3)CC2)cc1,3,-1,i,-7,-4,-5,-9,-7,
COC(=O)Cn1nnc2c(cnn2-c2ccccc2)c1=O,-4,-3,i,-10,4,·,3,0,
O=C(CSc1ccc(-c2ccccn2)nn1)Nc1ccc(F)cc1F,3,-13,i,-9,3,-22,3,-9,
COc1ccc(C(=O)NC2CCN(C(=O)Nc3ccccc3Cl)CC2)cc1,-8,-6,i,-8,-95,·,4,3,
O=C(CN1C(=O)NC2(CCOc3ccccc32)C1=O)NCCc1ccc(F)cc1 (stereo not given),·,·,·,5,-27,-3,-2,1,
CCOC(=O)C1=C(c2ccccc2)NC(SCC(=O)Nc2ccccc2C)=C(C#N)C1c1ccco1 (stereo not given),-3,5,i,-9,-16,-12,0,-11,
COc1ccc(C2(C#N)CCC(=O)N2c2ccccc2)cc1 (stereo not given),2,-7,i,-5,0,-4,5,2,
CC(OC(=O)[C@H](C)N=C1NS(=O)(=O)c2ccccc21)C(=O)Nc1ccc(F)c(F)c1F (stereo not given in full),·,·,·,·,-40,-2,-2,-1,
C=CCNC(=O)C(=O)c1c(-c2ccccc2)[nH]c2ccccc12,-3,5,i,-12,-41,-12,9,3,
COc1ccc(N2C(=O)CC(C)(C)CC2=O)cc1OC,-3,-2,i,-2,4,-18,0,3,
Cc1ccc(CN(C(=O)c2ccccc2[N+](=O)[O-])C2CCS(=O)(=O)C2)o1 (stereo not given),5,-12,i,-17,-1,-36,0,3,
Cn1c(/C(C#N)=C(\O)c2cccc(F)c2)nc2ccccc21,2,71,i,-5,-8,-17,-3,-3,eIF4H inh retest=2;PABP FP inh retest=4
CC(C)C(=O)Nc1cc(C(F)(F)F)ccc1-n1ccnc1,-15,-5,i,-3,11,·,-3,1,
Cc1ccc(-c2nc3ccccc3n3nnnc23)cc1,2,-6,i,·,·,-16,1,2,
CCCCN(C)C(=O)C1CCN(CCCc2ccccc2)CC1,18,11,i,-2,-28,-4,-2,0,
CC(C)c1ccc(O)c(NC(=O)c2cccnc2)c1,1,0,i,-5,·,-13,2,-1,

# A section of the results above, as a working copy:
SMILES,PABP FP inh,eIF4H inh,Rce1 inh,CSC inhib,HIV Env fusion,Yeast UUG start,MT1-MMP act inh,MT1-MMP act inh RFP,others
Cc1ccc(-c2nc3ccccc3n3nnnc23)cc1,2,-6,i,·,·,-16,1,2,
CCCCN(C)C(=O)C1CCN(CCCc2ccccc2)CC1,18,11,i,-2,-28,-4,-2,0,
CC(C)c1ccc(O)c(NC(=O)c2cccnc2)c1,1,0,i,-5,·,-13,2,-1,

# More results.
SMILES,PABP FP inh,eIF4H inh,Rce1 inh,CSC inhib,HIV Env fusion,Yeast UUG start,MT1-MMP act inh,MT1-MMP act inh RFP,others
Cc1ccc(C)c(NC(=O)CSc2nnc(Cc3cccn3C)n2-c2ccc(F)cc2)c1,-25,1,i,-4,4,5,-7,-1,
COc1ccccc1C1NC(=O)NC(C)=C1C(=O)OC1CCC(C)CC1 (stereo not given),-5,-12,i,-7,12,-23,-1,-7,
Cc1ccccc1Cn1c2ccccc2c2cnn(CC(=O)NCCCN3CCOCC3)c(=O)c21,5,-8,i,-10,1,4,1,1,
COc1cc(OC)nc(-n2ncc(Br)c(Br)c2=O)n1,12,-2,·,107*,-87,·,-23,-29,
COc1ccc(C2=NN(CC(=O)NCc3ccco3)C(=O)CC2)cc1,2,5,i,-3,-9,·,-2,-3,
Cc1ccc(-c2c(C(=O)NCc3ccc(F)cc3)oc(=O)c3ccccc23)cc1,-10,8,i,5,-36,1,1,-3,
CC(Sc1nnc(Nc2ccccc2)s1)C(=O)NC1CCCc2ccccc21 (stereo not given),-2,4,i,25,15,·,-9,-18,
CN(C)c1ccc(NC(=O)COC(=O)CCC(=O)c2ccc(F)cc2)cc1,1,-10,i,-4,6,-9,-6,8,
COC(=O)c1ccc(NC(=O)c2cc3c(CO)cnc(C)c3oc2=Nc2cccc(C(N)=O)c2)cc1,11,10,i,-3,8,-2,0,5,
CC(C)N1CCC1(C)C(=O)Nc1cccc2ccccc12 (stereo not given),·,·,·,·,-3,-21,0,6,
COc1ccc(OC)c(NC(=O)CSc2nnc(CNc3ccc(C)cc3C)o2)c1,9,4,i,3,35,-9,-2,-4,
CCOC(=O)N1CCN(C(=O)CN2C(=O)NC(C)(c3ccc4ccccc4c3)C2=O)CC1 (stereo not given),·,·,·,-12,·,-14,5,-4,
CC(C)C(NC(=O)CSCc1ccc([N+](=O)[O-])cc1)C(C)C,8,2,i,-5,-18,·,-3,-3,
CCc1cccc(NC(=O)CCCCCC2NC(=O)NC2C)c1 (stereo not given),-6,-4,i,-4,2,·,2,1,
O=c1[nH]c(Cc2ccccn2)nc2scc(-c3ccccc3Cl)c12,-3,-2,i,-2,3,·,-26,-3,
CC(C)C(=O)Nc1nnc(S(=O)(=O)N(C)c2ccc(Cl)cc2)s1,-1,-4,i,-2,18,-8,1,-1,
Cc1cccc(C)c1OCCCCN1CCNCC1,9,7,·,35,-1,0,3,0,
CC(=O)c1c(C)[nH]c(C(=O)CSc2nnc(C)s2)c1C,-9,2,i,-11,1,·,0,-6,
O=C(Nc1nc2ccccc2[nH]1)c1ccccc1O,36,0,i,3,-136,·,0,-3,
COc1ccc(NC(=O)C2(C)Cc3c(-c4ccc5c(c4)OCO5)ccnc3O2)cc1OC (stereo not given),·,·,·,·,32,-40,0,2,
CCOC(=O)N1CCN(C(=O)CCCN2C(=O)CSc3nc(C)cc(C)c32)CC1,12,11,i,·,·,-10,-2,7,
Cc1nc2ccc(N=NN(C)C)cc2[nH]1,1,-12,i,-5,10,·,5,6,
CCOc1ccc(C2/C(=C(/O)c3ccc(S(=O)(=O)N4CCCCC4)cc3)C(=O)C(=O)N2CCCOC)cc1OC (stereo not given),29,?,i,2,3,-10,-2,2,PABP FP inh retest=41
COc1ccc(N(C)C(=O)c2oc(=O)c3ccccc3c2-c2ccccc2)c(OC)c1,2,4,i,·,4,-22,-6,-2,
COc1ccccc1NC(C)C(=O)N/N=C/c1ccccc1OCc1cccc(Br)c1 (stereo not given),4,0,i,29,-3,·,-5,-5,
# Other structures follow.
SMILES,PABP FP inh,eIF4H inh,Rce1 inh,CSC inhib,HIV Env fusion,Yeast UUG start,MT1-MMP act inh,MT1-MMP act inh RFP,others
COc1ccccc1NC(=O)COC(=O)c1ccc2ccccc2n1,·,·,·,9,·,-12,2,4,
COc1ccc(-c2c(C#N)c(N)nc3c2CCCCCC3)cc1OC,0,-5,i,0,·,-13,-3,-2,
COc1ccccc1CCNC(C)CCc1ccc(O)cc1 (stereo not given),-14,2,i,6,11,0,-1,0,
Cc1nc2c(ccc3nc(NC(=O)Cc4cccc5ccccc45)sc32)s1,64,2,i,59,-83,-15,-5,-11,eIF4H inh retest=7;PABP FP inh retest=-8
CCCN(CCC)S(=O)(=O)c1ccc(C(=O)NNc2nc(-c3ccccc3)c3cc(Br)ccc3n2)cc1,1,2,i,19,·,·,-4,-4,
O=C(Nc1ccc(F)cc1)OCCN1CCN(Cc2ccccc2)CCC1=O,-3,-10,i,7,·,-24,3,-2,
N/C(=N\OC(=O)CCC1CCCC1)c1ccccc1,16,-10,i,1,-18,·,0,4,
O=C1C(Cc2ccccc2)NC(=S)N1Cc1ccccc1 (stereo not given),-1,4,i,2,11,·,2,2,
COC(=O)c1ccc(Nc2cc(C)nc3ccc(C)cc23)cc1,-6,-6,i,30,5,·,1,-3,
CC(C)CCN(C(=O)CNC(=O)c1ccco1)C(C(=O)NC1CCCCC1)c1ccco1 (stereo not given),4,-1,i,6,33,-12,5,4,
COc1ccccc1-c1nnc(SCC(=O)N2CCC(C)CC2)o1,-14,0,i,-11,·,-12,0,-1,
CC(C)NS(=O)(=O)c1ccc(OCC(=O)Nc2cccc(F)c2)cc1,2,4,i,-8,0,-6,-1,-1,
O=C(N1CCOCC1)C1(c2ccc(Cl)cc2)CCCC1,-9,-5,i,-6,·,0,0,2,
O=C1C2ON(c3ccccc3)C(c3cccnc3)C2C(=O)N1Cc1ccccc1 (stereo not given),-1,-5,i,-3,2,-16,-4,1,
O=C(Nc1nc(-c2ccccc2)c(-c2ccccc2)s1)c1ccc(S(=O)(=O)N2CCCC2)cc1,9,-6,i,-4,17,-7,6,4,
O=S(=O)(c1ccccc1F)N(Cc1ccco1)Cc1nnc(-c2ccccc2Br)o1,7,7,i,·,·,·,-5,-8,
CC(=O)NNc1nc(-c2ccc(NC(C)=O)cc2)cs1,-9,1,i,3,14,·,0,2,
NCCc1nnc(SCC(=O)c2ccc(Cl)cc2)o1,-8,-4,i,-9,11,·,0,3,
COc1ccc(CNC(=O)Oc2ccccc2)cc1Cl,3,-5,i,-6,-29,-33,-2,3,
CN(C)S(=O)(=O)c1ccc(Cl)c(NC(=O)CN2C(=O)NC(C)(C3CC3)C2=O)c1 (stereo not given),4,1,i,2,13,·,1,1,
O=C(Cn1ncc2c(=O)oc3ccccc3c21)NCCCN1CCCC1=O,-7,2,i,·,3,-12,5,6,
O=C(CSCc1ccc(Br)cc1)NC1CC1,-8,-8,i,-8,-6,-6,-3,-3,
O=C(c1ccco1)N1CCN(S(=O)(=O)c2cccc(Cl)c2)CC1,-8,-7,i,-5,-14,1,5,-1,
O=c1c2ccccc2nc(-c2ccccc2)n1Cc1ccco1,8,-2,·,-12,-9,-15,-1,-2,
CCC(C)[C@H]1COCCS(=O)(=O)N1Cc1ccc(Br)cc1 (stereo not given in full),-12,-5,i,2,-56,-10,0,-4,
